Source: PubChem (several laboratories)
E coli growth: blocks Escherichia coli growth; actives 0.21% (n = 330,000); OD600 absorbance (concentration not given with the values); AID 1053175; OD600, 23 h; hits give low values;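 active means OD600 absorbance below the run mean of sample wells minus 3.6 SD, in any replicate, cut at about 0.56 in these data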;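 further: stock transfer was 300 nL into about 60 µL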
UCH37 inh: blocks the human deubiquitinase UCH37. actives 0.33% (n = 330,000). Q9Y5K5. inhibition, % (concentration not given with the values). purified proteasome/UCH37, Ub-AMC cleavage fluorescence;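 active means mean of two replicates above 20%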;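 further: 0% = compound-free wells with enzyme and 100% = wells lacking proteasome; stock transfer was 100 nL into about 20 µL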
Target sequence (Q9Y5K5 whole entry, looked up): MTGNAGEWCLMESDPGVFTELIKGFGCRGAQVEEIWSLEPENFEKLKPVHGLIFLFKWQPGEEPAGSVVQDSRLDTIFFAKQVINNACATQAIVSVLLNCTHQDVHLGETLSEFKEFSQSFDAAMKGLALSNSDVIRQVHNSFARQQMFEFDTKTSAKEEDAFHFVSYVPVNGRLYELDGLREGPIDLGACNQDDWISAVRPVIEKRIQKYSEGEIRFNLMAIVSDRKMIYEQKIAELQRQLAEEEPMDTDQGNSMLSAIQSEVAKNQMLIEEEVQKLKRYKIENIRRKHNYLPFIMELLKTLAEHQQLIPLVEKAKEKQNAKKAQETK
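Schedule: 30 min plus 25 min, room temperature / Material: human UCH37 within purified proteasomes / Technique: AMC fluorescence intensity at 355/460 nm / Buffer or medium: pH 7.4 Tris-HCl (50 mM) with ovalbumin, ATP-MgCl2, DTT / Controls: wells without proteasome as full block, compound-free enzyme plus substrate as uninhibited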
ALR H2O2 inh: inhibitors of human sulfhydryl oxidase ALR | P55789 | purified ALR, DTT oxidation, H2O2 HRP-luminol luminescence | inhibition, % (concentration not given with the values) | actives 3.8% (n = 290,000) | AID 485317;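 active means mean and each replicate at 75% or more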;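 further: stock transfer was 7.5 nL into about 7.5 µL; 0% = neutral wells and 100% = wells with inactivated enzyme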
HNF4A DNA FP: change in binding of human HNF4 alpha to DNA | HNF4a-FITC DNA binding, fluorescence polarization, 1 h | actives 0.3% (n = 360,000) | activity change, % at 10 µM | AID 1224865; in the data active means activity change above about 30%, passing the limit was not always enough;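 further: controls were the assay level and a saturating level of protein; the project sought stronger binding though the title names inhibitors; some compounds called inactive have numbers as strong as hits; positive values seem to mean higher polarization but the record does not say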
LANA-H2B inh: blocks KSHV LANA binding to histone H2A/H2B. inhibition, % (concentration not given with the values). actives 0.6% (n = 320,000). Q9QR71. cell-free LANA-H2A/H2B peptide, fluorescence polarization; in the data active means inhibition mostly above about 10%, no sharp cut-off; inactive means mostly below about 6.7%;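 further: stock transfer was 7.5 nL into about 10 µL; 0% = median of vehicle wells and 100% = median of positive control wells; one replicate is shown; the record names a cut of 25% in any replicate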
FGF22 binding: shifts melting point of recombinant human FGF22; recombinant FGF22 thermal shift, SYPRO orange fluorescence; percent of sucrose octasulfate shift, DMSO zero; actives 1.5% (n = 340,000); AID 651658; Q9HCT0; calls only at 9.99 µM;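 active means melting point raised past a set limit in the mean and every replicate; three in four hits are not shown here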
Target sequence (Q9HCT0 whole entry, looked up): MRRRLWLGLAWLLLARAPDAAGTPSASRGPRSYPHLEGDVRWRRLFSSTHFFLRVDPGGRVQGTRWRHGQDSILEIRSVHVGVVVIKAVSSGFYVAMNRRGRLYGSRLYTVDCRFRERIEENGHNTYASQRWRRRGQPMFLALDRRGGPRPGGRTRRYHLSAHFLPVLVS
B2AR ag: agonists of human beta-2 adrenergic receptor inducing internalization; P07550; Am2.2-beta2AR cells, FAP receptor internalization, flow cytometry; reference of the scale not given here; response, % (concentration not given with the values); actives 0.43% (n = 340,000);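 active means response above a set limit, near 3 SD of response in nonfluorescent compounds, cut at about 42% in these data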;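 further: stock transfer was 100 nL into about 11 µL; a reference agonist was the positive control; negative values mostly stem from fluorescent compounds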
Target sequence (P07550 whole entry, looked up): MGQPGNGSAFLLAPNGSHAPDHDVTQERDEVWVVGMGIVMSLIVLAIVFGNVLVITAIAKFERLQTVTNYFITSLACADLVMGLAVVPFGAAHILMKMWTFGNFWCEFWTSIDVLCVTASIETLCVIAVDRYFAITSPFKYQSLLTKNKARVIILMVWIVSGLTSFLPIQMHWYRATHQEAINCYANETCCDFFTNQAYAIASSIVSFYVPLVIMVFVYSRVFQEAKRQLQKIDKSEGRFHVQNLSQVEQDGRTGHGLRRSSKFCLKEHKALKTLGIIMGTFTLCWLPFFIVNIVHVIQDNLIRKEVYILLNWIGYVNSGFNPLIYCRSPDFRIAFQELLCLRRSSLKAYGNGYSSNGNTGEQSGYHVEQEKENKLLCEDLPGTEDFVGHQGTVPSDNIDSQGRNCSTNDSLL
* marks the source's active call; other numbers are inactive results; i = inactive; . = not tested or not shown. This is a subset, so the mix of outcomes need not match the whole.

SMILES	E coli growth	UCH37 inh	ALR H2O2 inh	HNF4A DNA FP	LANA-H2B inh	FGF22 binding	B2AR ag
O=S(=O)(NCc1ccco1)c1ccc(Cl)nc1	0.64	2.6	48	0.4	2.4	.	6
CC(C)COc1ccc(C(=O)NNC(=O)c2ccc(=O)[nH]c2)cc1	0.67	1.3	2	-0.9	-0.4	i	-10
CCOC(=O)N/N=C\c1ccc(OC/C=C/c2ccccc2)cc1	.	.	-10	6.0	-0.3	i	0
CCC/C=N/NC(=O)c1cc(Br)ccc1O	.	.	50	-3.4	1.0	.	4
COc1ccc(-c2sc(Nc3ccccc3)n[n+]2-c2ccc(F)cc2)cc1Br	0.63	2.7	6	1.5	3.5	i	-1
CCOC(=O)CSc1nc(N(C)C)nc(N(C)C#N)n1	0.76	2.3	-5	2.2	1.1	.	4
COc1ccc(OC)c(C2CC(c3ccccc3)=NN2C(=S)Nc2ccccc2)c1 (stereo unspecified)	0.68	6.6	-4	4.2	-3.9	i	1
O=C(NCCCN1CCCC1=O)C(=O)Nc1cccc(F)c1	0.62	0.8	-14	1.4	-0.4	i	-3
COc1ccc2oc(C(=O)Nc3cccc(S(=O)(=O)N4CCOCC4)c3)c(C)c2c1	0.64	-14	.	1.1	.	i	17
CCCNC(=O)Nc1cccc(NC(C)=O)c1	0.71	2.0	-6	2.6	-1.1	i	-11
CCN(CC)S(=O)(=O)c1cc(C(=O)Nc2cc(S(=O)(=O)N3CCOCC3)ccc2N2CCN(C)CC2)ccc1C	0.67	4.4	.	2.5	.	i	10
CC(=O)Nc1cccc(NC(=O)C2CC(=O)N(CCc3ccc(F)cc3)C2)c1 (stereo unspecified)	0.66	-0.9	3	2.9	-1.7	i	-12
CCN(CC)S(=O)(=O)c1ccc(N2CCOCC2)c(NC(=O)C2CSC3(C)CCC(=O)N23)c1 (stereo unspecified)	0.71	-1.0	-7	4.0	-40	i	10
Cc1nonc1C1CCCN1C(=O)c1cc(COc2ccc(F)cc2F)on1 (stereo unspecified)	0.69	4.5	-8	3.6	-3.6	i	-4
COc1ccc(-c2ncncc2-c2ccc(Cl)cc2)c(O)c1	0.69	1.3	11	1.4	4.1	i	-7
COc1cc(N=Nc2c(C)n(C)n(-c3ccccc3)c2=O)ccc1N	0.72	20	98*	7.5	3.8	i	-5
Cc1ccc(NC(=O)C(CC(=O)O)C2CCCO2)c(C)c1 (stereo unspecified)	0.7	1.9	-3	3.0	4.3	i	0
O=C(O)c1cc2c(cc1Cl)N1CCCCCC1=NS2(=O)=O	0.68	2.7	-5	-0.9	-0.2	i	7
COc1cc(/C=C2\C(=O)N(C)C(=S)N2C)ccc1O	0.66	4.2	39	5.7	7.4	i	-13
COc1ccc(-c2nc(CN3CCN(C(=O)c4ccco4)CC3)c(C)o2)cc1OC	0.72	0.8	-8	2.1	4.1	i	4
COc1nc(NCCN2CCOCC2)nc(Nc2ccc([N+](=O)[O-])cc2)n1	0.69	10	-17	2.1	-5.2	.	-3
Cc1ccc(S(=O)(=O)c2nc(S(=O)(=O)c3ccccc3)sc2N2CCN(CCO)CC2)cc1	0.71	3.3	-8	-1.8	.	i	-8
COc1cc(CNCc2cccnc2)ccc1OCc1ccccc1	0.66	0.9	-2	-1.1	1.7	i	-3
N#Cc1nc(-c2ccco2)oc1N1CCN(c2ccccc2)CC1	0.75	-6.1	18	-1.7	0.4	.	-1
COc1ccc2[nH]c3c(c2c1)CCN1C(=O)N([C@@H](C)C(=O)NCCc2ccc(F)cc2)C(=O)[C@]31C	0.73	2.6	-3	1.9	1.4	i	10
SMILES	E coli growth	UCH37 inh	ALR H2O2 inh	HNF4A DNA FP	LANA-H2B inh	FGF22 binding	B2AR ag
Cc1cnc(C(=O)OCC(=O)c2ccc(Br)s2)cn1	0.64	2.3	0	-2.0	-4.9	i	-7
Cc1sc(NC(=O)CSc2nnc3scc(-c4ccccc4)n23)c(C#N)c1C	0.79	-0.8	-1	-5.9	-0.7	.	18
CCOC(=O)c1cnn(-c2ccccc2)c1NC(=O)c1cccs1	0.68	0.5	14	1.1	-5.9	i	7
CN(C)c1ccc(-c2noc(C3CCN(S(=O)(=O)c4cccc(Cl)c4)CC3)n2)cc1	0.76	-26	.	2.9	3.3	.	65*
COc1ccccc1/C=C(/CC(=O)NCc1ccc(F)cc1)c1nc2ccccc2s1	0.75	-7.1	-3	-2.7	0.0	i	-1
COc1ccc(Cl)cc1-c1nc(SCC(=O)N(C)CCC#N)n[nH]1	0.66	2.9	7	3.5	6.4	i	-2
O=C(Nc1ccc(Cl)c(Cl)c1)c1ccc2c(c1)OCO2	0.66	0.1	-27	-2.9	2.4	i	-11
Cc1ccc(S(=O)(=O)N2CCC(C(=O)NNC(=O)C3CC3)CC2)cc1Cl	0.7	1.4	-11	3.5	-0.5	i	-4
CCN1C(=O)[C@@H]2[C@H](C1=O)[C@@H]1CC(C(=O)OC)=C[C@@H](C(=O)OC)C3C1=C(C(=O)C3(CC)CC)[C@@H]2C (stereo partly specified)	.	5.2	-5	.	2.7	i	.
COc1ccc(C2C(C(=O)N3CCN(c4ccccn4)CC3)CCC(=O)N2c2cc(OC)c(OC)c(OC)c2)cc1 (stereo unspecified)	0.71	0.0	.	1.6	0.4	i	-10
Cc1cccc(Nc2nnc(SCc3cn4ccsc4n3)s2)c1	0.64	3.6	-10	1.1	2.8	.	-11
Cc1cc(OCCCC(=O)Nc2cc(S(=O)(=O)N3CCOCC3)ccc2N2CCOCC2)ccc1Cl	0.67	0.2	.	1.3	.	i	-3
CN(C)c1ccc(C(=S)N2CCN(c3ccccc3)CC2)cc1	0.69	1.8	99*	4.8	4.8	.	-8
O=C(CN1CCN(c2ncc(C(F)(F)F)cc2Cl)CC1)NCCNc1ncc(C(F)(F)F)cc1Cl	0.74	6.3	4	1.4	8.2	.	-16
CC(=O)NC(CCS(C)(=O)=O)C(=O)Nc1ccc(C)c(F)c1 (stereo unspecified)	0.75	3.6	.	1.9	4.2	.	0
CN(C)S(=O)(=O)c1ccc(Cl)c(NC(=O)CN2CCN(Cc3ccc4c(c3)OCO4)CC2)c1	0.68	4.9	-1	-5.2	0.5	i	5
O=C(CN1C(=O)NC2(CCCC2)C1=O)Nc1cc(S(=O)(=O)N2CCCCC2)ccc1Cl	0.71	3.0	.	-0.1	-2.2	i	5
CSc1ncccc1C(=O)OCC(=O)NC(N)=O	0.65	1.9	3	-3.8	3.3	.	7
Cc1ccc([N+](=O)[O-])cc1N(CC(=O)NCC1CCCO1)S(C)(=O)=O (stereo unspecified)	0.65	5.3	1	-1.8	7.5	i	-7
CCCCNC(=S)NCCN1CCN(C(=S)NCCCC)CC1	0.68	0.6	11	0.0	1.0	i	-5
COc1ccc([N+](=O)[O-])cc1NC(=O)C(C)OC(=O)CC1CCCC1 (stereo unspecified)	0.7	0.1	-2	-1.3	-5.7	i	-2
O=C(CSc1ncnc2c1oc1ccccc12)c1cccs1	0.73	1.1	1	1.1	-1.4	.	-1
Cc1ccc(C)c(N2CCN(C(=O)CCCN3C(=S)NC(C)(C)CC3C)CC2)c1 (stereo unspecified)	0.67	4.6	18	0.8	-0.9	.	-1
CCOc1ccccc1CN1CCN(Cc2cccc3c2OCO3)CC1CCO (stereo unspecified)	0.69	1.4	-1	4.8	-0.2	i	4
CC1=C(C(=O)Nc2cccc(C)n2)C(c2ccc3c(c2)OCO3)C2=C(CC(c3ccco3)CC2=O)N1 (stereo unspecified)	0.73	-99	.	-3.1	.	.	-5
SMILES	E coli growth	UCH37 inh	ALR H2O2 inh	HNF4A DNA FP	LANA-H2B inh	FGF22 binding	B2AR ag
CC1=C(C#N)C(Nc2ccc(Cl)cn2)(C(F)(F)F)C(=O)N1 (stereo unspecified)	0.7	1.1	-1	-0.1	-0.2	.	3
CCO[C@H]1OC(C(N)=O)=C[C@@H](c2ccccc2)[C@@H]1CCCO	.	0.4	-5	-6.0	5.8	i	-5
COC(=O)C1=C(CSc2nc3c(cc2C#N)CN(C)CC3)OC(N)=C(C#N)C1c1ccc(F)cc1 (stereo unspecified)	0.7	-27	-41	-3.4	12	.	-6
O=C(CSc1nc(-c2ccccc2)cs1)Nc1ccccc1[N+](=O)[O-]	0.75	3.9	-2	-3.8	3.0	i	0
C#CCN1C(C)=C(C(=O)OC)C(c2cccc([N+](=O)[O-])c2)C(C(=O)OCC)=C1C (stereo unspecified)	0.72	5.9	0	-0.2	6.7	i	3
CN(CCO)c1cc(N2CCC3(CC2)OCCO3)c2nonc2c1[N+](=O)[O-]	0.7	19	.	16	-1.4	i	3
Cc1cc(Cl)c(OCCn2ccnc2)c(Br)c1	0.62	1.1	0	-2.5	-1.4	i	0
COCCn1c(Cc2ccccc2)nnc1SCC(=O)NC(C)(C)C	0.65	2.2	-3	0.8	-4.1	.	0
COc1cccc(CN(CC2CCCO2)S(=O)(=O)c2ccc(S(=O)(=O)N(C)C)cc2)c1 (stereo unspecified)	0.7	3.4	1	3.2	-2.8	.	1
O=c1[nH]ncc(N/N=C\c2cccs2)c1Cl	.	.	68	5.3	-3.7	i	-10
Cc1ccc(C)c2[nH]c(=O)c(CN(Cc3nnnn3C3CCCCC3)CC3CCCO3)cc12 (stereo unspecified)	0.67	-1.7	-1	3.0	-7.6	.	-8
O=C1/C(=C/c2ccccc2F)SC(=S)N1CCC(=O)N1CCCCC1CCO (stereo unspecified)	0.68	5.9	-4	-0.8	-2.1	i	-2
O=C(CN1CCN(Cc2ccccc2F)C1=O)NCCN1CCOCC1	0.7	0.1	-3	3.4	-0.4	i	8
O=C(CCc1ccccc1)NN1C(=O)C2C3C=CC(O3)C2C1=O (stereo unspecified)	0.62	-0.3	-1	0.4	-5.0	i	8
Cc1ccc(CN2CCN(/N=C/c3cccnc3)CC2)cc1	.	.	.	-0.1	0.2	.	-2
COc1ccc(-n2nnnc2SCC(=O)Nc2ccccc2N2CCOCC2)cc1	0.71	2.5	-4	0.9	7.8	i	6
O=C(CN1C(=O)c2cccc([N+](=O)[O-])c2C1=O)NNC(=O)c1ccc(F)cc1	0.69	-1.5	-7	-0.9	1.2	i	-3
CCOCCn1c(CN2CCN(C(=O)c3ccco3)CC2)nc2c1c(=O)n(C)c(=O)n2C	0.65	2.0	-1	0.0	-8.7	i	2
O=C(NCc1cccs1)C1CC(=O)N(C2CCCC2)C1 (stereo unspecified)	0.67	1.7	-1	3.0	2.9	.	-7
CCOC(=O)c1sc(=S)n(-c2ccc(C)cc2)c1N	0.67	-2.4	1	3.3	.	i	23

Entries shown so far that have an aryl thioether with sulfur outside any ring (10):
SMILES	E coli growth	UCH37 inh	ALR H2O2 inh	HNF4A DNA FP	LANA-H2B inh	FGF22 binding	B2AR ag
CCOC(=O)CSc1nc(N(C)C)nc(N(C)C#N)n1	0.76	2.3	-5	2.2	1.1	.	4
Cc1sc(NC(=O)CSc2nnc3scc(-c4ccccc4)n23)c(C#N)c1C	0.79	-0.8	-1	-5.9	-0.7	.	18
COc1ccc(Cl)cc1-c1nc(SCC(=O)N(C)CCC#N)n[nH]1	0.66	2.9	7	3.5	6.4	i	-2
Cc1cccc(Nc2nnc(SCc3cn4ccsc4n3)s2)c1	0.64	3.6	-10	1.1	2.8	.	-11
CSc1ncccc1C(=O)OCC(=O)NC(N)=O	0.65	1.9	3	-3.8	3.3	.	7
O=C(CSc1ncnc2c1oc1ccccc12)c1cccs1	0.73	1.1	1	1.1	-1.4	.	-1
COC(=O)C1=C(CSc2nc3c(cc2C#N)CN(C)CC3)OC(N)=C(C#N)C1c1ccc(F)cc1 (stereo unspecified)	0.7	-27	-41	-3.4	12	.	-6
O=C(CSc1nc(-c2ccccc2)cs1)Nc1ccccc1[N+](=O)[O-]	0.75	3.9	-2	-3.8	3.0	i	0
COCCn1c(Cc2ccccc2)nnc1SCC(=O)NC(C)(C)C	0.65	2.2	-3	0.8	-4.1	.	0
COc1ccc(-n2nnnc2SCC(=O)Nc2ccccc2N2CCOCC2)cc1	0.71	2.5	-4	0.9	7.8	i	6
